Screening data as filed in PubChem.
Beta apoptosis – beta cell apoptosis inhibition; INS-1E cytokine-induced death, ATP luminescence, 48 h; percent of positive-control rescue, neutral wells zero; protection from apoptosis, % (no concentration beside the values); 300,000 compounds, 0.8% hits; AID 435005;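 active means all replicates at 75% or more, or half of them and the mean; inconclusive means half reach 75% but not the mean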;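 further: 0% = cytokine-treated negative control wells and 100% = positive control rescue; higher means more ATP so stronger rescue from cytokine killing; wells of about 40 µL received 100 nL stock; the first replicate is given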
Beta2AR agonist – agonists of human beta-2 adrenergic receptor inducing internalization. 340,000 compounds, 0.43% hits. P07550. response, % (test concentration not listed). Am2.2-beta2AR cells, FAP receptor internalization, flow cytometry; reference of the scale not given here. AID 504454;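 active means response above a set limit, near 3 SD of response in nonfluorescent compounds, cut at about 42% in these data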;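 further: stock transfer was 100 nL into about 11 µL; a reference agonist was the positive control; negative values mostly stem from fluorescent compounds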
Target sequence (P07550 whole entry, looked up): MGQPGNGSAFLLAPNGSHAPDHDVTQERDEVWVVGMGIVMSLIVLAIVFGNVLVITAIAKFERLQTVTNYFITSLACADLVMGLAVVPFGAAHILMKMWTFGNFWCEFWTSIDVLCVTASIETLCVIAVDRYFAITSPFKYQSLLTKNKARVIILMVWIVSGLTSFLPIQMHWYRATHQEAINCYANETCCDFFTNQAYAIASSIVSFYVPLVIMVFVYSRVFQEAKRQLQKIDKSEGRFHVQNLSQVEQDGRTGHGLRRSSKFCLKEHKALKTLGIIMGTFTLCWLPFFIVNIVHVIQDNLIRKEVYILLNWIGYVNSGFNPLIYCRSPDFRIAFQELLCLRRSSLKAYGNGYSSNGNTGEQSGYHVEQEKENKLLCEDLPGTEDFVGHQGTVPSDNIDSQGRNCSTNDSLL
T cruzi repl – blocks replication of Trypanosoma cruzi; T. cruzi beta-gal in NIH3T3, luminescence, 90 h; inhibition, % (no concentration beside the values); 300,000 compounds, 1.4% hits; AID 1885;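 active means mean inhibition across valid replicates above about 55%, limit read from the data; inconclusive means mean below that limit but half or more replicates reach it; inactive means mean below it, under half of replicates reach it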;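 further: signal also drops with host cell toxicity which is not excluded here; 0% = plate median of DMSO wells and 100% = zero luminescence signal; higher percent means less beta-gal luminescence so fewer parasites; stock transfer was 50 nL into about 50 µL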
LANA-H2A inh – blocks KSHV LANA binding to histone H2A/H2B; Q9QR71; cell-free LANA-H2A/H2B peptide, fluorescence polarization; inhibition, % (concentration not given with the values); 320,000 compounds, 0.6% hits; AID 2629; in the data active means inhibition mostly above about 10%, no sharp cut-off; inactive means mostly below about 6.7%;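 further: stock transfer was 7.5 nL into about 10 µL; 0% = median of vehicle wells and 100% = median of positive control wells; one replicate is shown; the record names a cut of 25% in any replicate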
A1 inh – inhibitors of the anti-apoptotic protein A1, read as caspase activation | MEF A1-2A-BIM cells, Caspase-Glo 3/7 luminescence, 3 h; percent of clofoctol response, vehicle zero | caspase activation, % (test concentration not listed) | 330,000 compounds, 0.066% hits | AID 2462;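 active means over half of replicate activation scores above 10%, or exactly half above 10 with the replicate mean above 10; inconclusive means replicate mean below 10 yet half the replicates above 10; inactive means over half of replicates below 10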;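 further: wells of about 30 µL received 50 nL stock; many hits fall short of the cut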
UCH37 inh – blocks the human deubiquitinase UCH37; purified proteasome/UCH37, Ub-AMC cleavage fluorescence; Q9Y5K5; inhibition, % (concentration not given with the values); 330,000 compounds, 0.33% hits;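 active means mean of two replicates above 20%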;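 further: 0% = compound-free wells with enzyme and 100% = wells lacking proteasome; stock transfer was 100 nL into about 20 µL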
Target sequence (Q9Y5K5 whole entry, looked up): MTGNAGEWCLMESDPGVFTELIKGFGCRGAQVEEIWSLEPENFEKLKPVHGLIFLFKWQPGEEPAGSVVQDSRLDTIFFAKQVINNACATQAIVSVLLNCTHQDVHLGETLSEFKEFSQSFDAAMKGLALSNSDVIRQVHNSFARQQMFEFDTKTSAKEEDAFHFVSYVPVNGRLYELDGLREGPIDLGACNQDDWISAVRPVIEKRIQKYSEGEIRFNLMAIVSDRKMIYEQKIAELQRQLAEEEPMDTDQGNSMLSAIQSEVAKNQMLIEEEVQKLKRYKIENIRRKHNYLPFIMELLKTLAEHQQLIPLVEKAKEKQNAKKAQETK
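assay system = human UCH37 enzyme supplied as purified proteasome complex | amount = proteasome at 0.15 nM in the dispensed enzyme solution | schedule = 30 min compound-proteasome preincubation then 25 min substrate reaction, room temperature | measured by = fluorescence, ex 355 nm, em 460 nm | benchmarks = no-proteasome wells (full inhibition) and compound-free wells (no inhibition)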
Calb FLC – affects C. albicans growth with fluconazole | C. albicans CaCi-2 (fluconazole-resistant clinical isolate) + fluconazole, Alamar Blue growth, 48 h | growth inhibition, % (test concentration not listed) | 300,000 compounds, 0.57% hits | AID 1979;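 active means most replicates above 75%; inconclusive means exactly half above 75%; inactive means most below 75%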;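 further: all wells also contain fluconazole at 8 µg/ml as a sub-toxic cotreatment; 0% = median of DMSO wells and 100% = median of geldanamycin control wells; wells of about 8 µL received 7.5 nL stock; the first replicate is given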
RanGTP-Impb inh – inhibitors of RanGTP-importin-beta interaction, primary screen, biochemical, FRET, CFP-Ran, YFP-importin-beta, homogeneous | cell-free CFP-Ran/YFP-importin-beta FRET ratio | inhibition, % (no concentration beside the values) | 300,000 compounds, 1.1% hits | AID 2216;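 active means most replicates above 15%; inconclusive means exactly half above 15%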;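 further: 0% = DMSO wells and 100% = Ran loaded with GDP instead of GTP; wells of about 40 µL received 100 nL stock; the first replicate is given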
Starred values were filed as active, the others as inactive; u = inconclusive; x = not tested or not shown.

SMILES	Beta apoptosis	Beta2AR agonist	T cruzi repl	LANA-H2A inh	A1 inh	UCH37 inh	Calb FLC	RanGTP-Impb inh
NC(CS(=O)O)C(=O)O (configuration not stated)	x	-2	-33	-0.6	0.6	2.3	-9	1.7
COc1ccc(NC(=O)C2Cc3ccccc3CN2C(=O)c2ccccc2)cn1 (configuration not stated)	6	-2	-9	7.7	0.0	1.2	1	1.3
O=C(c1ccc(N2CCCC2=O)cc1)N1CCCCCC1	x	-7	-10	0.8	-0.6	1.3	x	-1.5
CCOc1ccc(S(=O)(=O)NNC(=S)Nc2ccc(Br)cc2)cc1	-8	0	-13	-1.3	0.1	5.3	3	0.6
COC(=O)c1cc(Br)c(=O)n(CCc2ccc(F)cc2)c1	3	-6	2	4.6	0.3	3.4	7	4.0
COc1ccc(OCCSc2nc(N)cc(=O)[nH]2)cc1	5	-6	-34	0.2	0.8	-0.1	10	1.6
COc1ccc2c(=O)cc(C(=O)O)oc2c1	-4	-5	-7	1.8	0.7	-5.7	-17	8.3
Cc1cc(NC(=O)[C@H](C)NC(=O)c2ccco2)ccc1Br	1	-3	-8	0.7	-1.3	0.0	-9	1.4
COc1ccc(/C=N/Nc2cc(C)nc3ccc(Br)cc23)cc1	100*	37	59*	0.5	-0.6	x	48	7.7
CCN(C(=O)COC(=O)c1ccc(F)c(S(=O)(=O)N2CCOCC2)c1)C1CCS(=O)(=O)C1 (configuration not stated)	-9	-4	-10	-4.0	-0.3	0.4	-5	-11
Cc1ccc(S(=O)(=O)/N=C(/c2ccc(F)cc2)N2CCCCC2)cc1	2	-1	-5	-1.0	-0.1	x	29	3.9
COc1cc(CC(=O)N(CC(C)C)C2CCS(=O)(=O)C2)cc(OC)c1OC (configuration not stated)	0	15	x	0.9	-0.6	2.0	x	x
COc1cc(/C=C/C(=O)O)cc(OC)c1OC	-3	-8	-9	2.1	0.4	-2.1	-7	-7.3
CCN1C(=O)[C@@H]2[C@@H](c3ccc(-c4ccc(C(C)=O)cc4)cc3)N3CCC[C@@]3(C(=O)OC)[C@@H]2C1=O	3	2	-16	-4.4	2.1	2.5	0	-1.3
CCCCn1c(N)c(N(CCOC)C(=O)c2cc(-c3ccc(OC)c(OC)c3)nc3ccccc23)c(=O)[nH]c1=O	-1	-7	6	-2.8	-0.7	6.0	-3	-0.4
O=S(=O)(Nc1ccc(-n2cnnn2)cc1)c1ccccc1F	3	10	x	2.0	-0.3	0.8	x	x
CC(C)CCN1CCN(Cc2cc3ccccc3[nH]2)CC1CCO (configuration not stated)	-1	8	21	0.1	0.1	0.0	-1	1.8
O=C(NNc1nc2ccccc2o1)c1ccccc1	-4	8	-2	-2.1	-8.4	5.2	4	12
COc1ccc(NCc2nnc(SCC(=O)c3ccc(C)cc3)o2)cc1	0	-1	-14	-0.7	-0.7	3.8	-30	1.7
COc1ccc(C2CC(=O)c3c(C)nc(N4CCN(c5ccccc5)CC4)nc3C2)cc1 (configuration not stated)	2	-5	26	-2.3	-1.2	-6.4	5	2.8
COCC(C)NC(=O)/C=C/c1ccc(OC)cc1 (configuration not stated)	-7	-8	-9	-4.0	-1.7	-0.3	-19	1.2
CCOc1ccccc1N1CC(C(=O)N(CC)C2CCS(=O)(=O)C2)CC1=O (configuration not stated)	-2	-3	x	2.5	-0.6	3.8	x	x
Cn1nccc1C(=O)NCCN1C(=O)OC(C)(C)C1(C)O (configuration not stated)	-9	1	3	-1.1	-1.5	2.4	7	9.9
COc1ccc(-c2nn(-c3ccccc3)cc2CNC(C)Cn2cncn2)c(F)c1 (configuration not stated)	-7	-14	6	-4.0	-0.9	2.2	-8	-0.6
CCCNC(=O)c1ccccc1NC(=O)c1ccccc1N(C)S(=O)(=O)c1ccc(C)cc1	x	-12	17	x	x	-5.4	11	-1.4
(listing goes on)
SMILES	Beta apoptosis	Beta2AR agonist	T cruzi repl	LANA-H2A inh	A1 inh	UCH37 inh	Calb FLC	RanGTP-Impb inh
COc1ccc(/C=N\NC(=O)c2cc(O)c(O)c(O)c2)cc1COc1ccc(C(=O)OCC(C)C)cc1	2	17	14	-2.5	0.1	x	66	4.3
N#C/C(=C(/O)CSc1nnc(Cc2cccs2)n1C1CCCCC1)c1nc2ccccc2[nH]1	-5	15	8	1.3	0.5	x	8	14
CS/C(=C/[N+](=O)[O-])Nc1cccc2c1C(C)CC2(C)C (configuration not stated)	4	4	7	-1.2	u	4.8	5	x
CCc1cc(=O)oc2cc(OCC(=O)NCCCn3ccnc3)c(Cl)cc12	2	2	2	-0.9	0.4	-6.6	4	-0.7
CC(=O)Nc1ccc(NS(=O)(=O)c2ccc(-c3csc(C)n3)s2)cc1	11	2	-4	-1.8	0.7	5.2	17	3.2
CCc1ccc(NC(=O)Nc2ccc3c(c2)N(C)C(=O)CS3)cc1	x	29	11	-1.1	0.4	6.1	-11	-0.4
CCN(CC)c1nc2ccccc2n(Cc2cccc(OC)c2)c1=O	-1	9	12	-2.9	0.3	-3.1	-1	-0.1
Cc1nn(-c2ccccc2)c2c1C(c1ccccc1)C(C#N)=C(N)O2 (configuration not stated)	-6	4	-7	0.0	-0.4	0.2	1	1.3
C=CCNc1oc(-c2ccc(OCC)cc2)nc1C#N	-8	-2	-3	2.7	-0.1	-45	3	-1.2
C=CCNC(=O)CCCOc1cc(C)ccc1C	-2	3	-16	-1.3	0.9	4.5	-21	2.5
COC(=O)C1=CN(c2ccc(F)cc2)C=C(C(=O)OC)C1c1cccc(Br)c1	22	-2	43	0.1	-0.6	-339	9	2.6
COc1ccc(/C=C/C(=O)Nc2ccc3nc4n(c(=O)c3c2)CCCC4)cc1OC	1	7	-1	0.1	-0.1	-399	-7	0.7
O=C(CN1C(=O)C2CC=CCC2C1=O)NCc1cccs1 (configuration not stated)	-6	4	7	-0.6	0.5	0.4	-3	1.4
O=C(CN1C(=O)NC2(CCCC2)C1=O)NCc1ccco1	-6	-6	x	4.1	0.0	1.8	x	x
COCCN(C(=O)c1csnn1)C(C(=O)NC1CCCCC1)c1cccs1 (configuration not stated)	-1	1	13	2.7	0.4	1.7	-2	5.2
COc1cccc(NC(=O)Nc2cc(C)on2)c1	2	-1	-8	-0.1	-0.4	4.0	1	4.4
CCC(CC)C(=O)Nc1ccc(C(=O)c2ccccc2)cc1	4	0	18	-3.0	0.3	4.5	-26	-4.2
Cc1ccc2nc(SCc3nnc(-c4ccccc4Br)o3)[nH]c2c1	-5	0	5	3.1	0.3	-1.9	0	4.5
COc1cccc(N2CCN(CC(=O)NC(C)c3ccccc3)CC2)c1 (configuration not stated)	x	-1	1	-4.5	0.3	-0.2	12	2.9
Cc1ccc(C)c(Cn2c(=O)n(-c3ccc(CC(=O)NCc4ccco4)cc3)c(=O)c3sccc32)c1	-10	-17	-17	-2.6	0.6	4.7	-3	-5.5
Cc1ccccc1-c1cn(-c2ccccc2)c(=S)[nH]1	x	5	-5	-0.7	0.9	0.0	-16	5.0
O=C(Nc1ccc(F)cc1)c1cccc(N2C(=O)C3C4C=CC(C4)C3C2=O)c1 (configuration not stated)	3	0	-18	5.2	0.5	0.1	4	-3.8
Cc1ccc(C(=O)Nc2nc3ccccc3s2)s1	11	6	-9	4.2	-0.1	-7.8	-30	-0.4
Cc1[nH]c2ccccc2c1/C=N/Nc1ccccc1[N+](=O)[O-]	17	5	62*	-3.9	-0.4	x	-5	2.8
C=C(C)Cn1c(CCCNC(=O)CC)nc2ccccc21	x	-2	-8	2.4	-0.1	3.3	28	-0.1
(more compounds)
SMILES	Beta apoptosis	Beta2AR agonist	T cruzi repl	LANA-H2A inh	A1 inh	UCH37 inh	Calb FLC	RanGTP-Impb inh
CC(O)CNc1nc2c(c(=O)n(Cc3ccc(Br)cc3)c(=O)n2C)n1C (configuration not stated)	-6	-13	-11	1.9	1.4	3.1	-6	-4.9
COc1ccc(-n2c(Cc3cccn3C)nnc2SCC(=O)Nc2cccc(OC)c2)cc1	-11	12	4	7.9	0.3	0.5	-5	2.7
CCC(Sc1nc2ccccc2c(=O)[nH]1)C(=O)Nc1ccc(C(C)=O)cc1 (configuration not stated)	11	-7	6	-3.7	-0.6	0.0	-7	4.0
Cc1cc(C)nc(NS(=O)(=O)c2ccc(NC(=O)CN3C(=O)S/C(=C\c4ccccc4)C3=O)cc2)n1	-4	14	-17	-8.1	0.1	8.9	6	-0.8
O=C(CCNC(=O)c1ccc(Cl)cc1)NCc1cccc(C(F)(F)F)c1	3	2	2	-2.9	0.0	4.7	-8	-3.7
COc1cccc(OC)c1C(=O)Nc1ccc(Cc2ccncc2)cc1	3	-13	2	3.8	0.0	-1.9	-3	-3.9
COc1ccc(OC)c(NC(=O)c2c(NC(=O)c3ccco3)sc3c2CCC3)c1	x	x	-15	x	x	-86	5	6.9
CC(C)NC(=O)c1cccc(Br)c1	3	11	4	1.3	0.2	-0.1	-24	-2.0
Cc1ccc(NC(=O)c2ccc3c(c2)N(CC(=O)NC(C)C)C(=O)C(C)(C)O3)cc1	-4	-1	-13	0.1	-0.3	2.1	2	-5.4
N#CC1=C(N)Oc2c(oc(CO)cc2=O)C1c1ccccc1[N+](=O)[O-] (configuration not stated)	5	3	-4	-0.8	0.0	-0.3	11	-0.9
COc1ccc(/C=N/NC(=O)c2sccc2OCc2ccc(F)cc2)cc1OC	10	-14	21	2.2	-0.2	x	-10	-3.4
CC(C)(C)OC(=O)NCCCC[C@H](NC(=O)c1nc[nH]c1C(=O)N[C@@H](CCCCNC(=O)OC(C)(C)C)C(=O)OC(C)(C)C)C(=O)OC(C)(C)C	25	4	43	-0.3	-1.6	4.3	18	-2.6
CC(C)[C@@H](CO)NC(=O)c1ccc2c3n(nc2c1)-c1ccccc1CO3	x	-7	-15	4.2	-13	-7.1	1	-2.5
COCc1cc(C)nc(SC)c1C#N	-3	-3	-14	-1.4	0.5	1.6	-4	-0.9
Cc1cc(NC(=O)c2ccc([N+](=O)[O-])cc2)n(CCC#N)n1	-6	2	6	2.6	0.2	3.6	2	-1.2
CCN(CC(=O)NC(C)(C)C)C(=O)c1ccc2c(c1)S(=O)(=O)c1ccccc1C2=O	-2	3	14	-2.1	0.4	0.3	6	-2.1
COc1cc([C@H](Cc2ccccc2)NC(C)=O)oc(=O)c1	-4	-4	10	-3.1	-0.6	1.9	-8	-0.9
Cc1ccc(N2C(=O)c3ccc(C(=O)NCCN4CCOCC4)cc3C2=O)cc1	1	-24	8	-3.0	-0.4	-0.3	13	2.2
COc1ccc(S(=O)(=O)N2CCOC23CCN(C(=O)c2ccccc2OC)CC3)cc1	-5	33	-17	-5.1	0.3	-0.7	-4	-3.7
O=C(COc1ccc2c(-c3ccccc3)cc(=O)oc2c1)Nc1ccc(CCO)cc1	0	0	-3	-2.4	-0.4	-76	1	21
O=c1[nH]c(COc2ccc(Cl)cc2Br)nc2ccccc12	x	4	0	-0.3	0.2	-1.3	-4	-0.8
CC(=NCc1ccco1)c1c(C)[nH]n(-c2nc3ccccc3s2)c1=O	10	-17	7	0.2	-4.3	-160	13	u
Cc1cccc(N=C2NN=C(c3c(C)[nH]c4ccccc34)CS2)c1	8	-2	4	x	0.3	3.0	0	5.5
